Screens from PubChem.
RE007 growth inh – less growth of the S. pombe RE007 Vpr strain | 360,000 tested, 0.21% active | Potency, µM (top dose mostly 92.2 µM), for the others: top-dose activity change, negative = less growth | S. pombe RE007 Vpr strain, BacTiter-Glo ATP luminescence, 24 h; control for the full effect not named in the record; active = well fitted falling curve with a large enough effect; inconclusive = small, poorly fitted or top-dose-only effect; inactive = no such curve, though single readings can be large or run the other way;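 further: on the % scale 0 is the no-effect control and ±100 the full control effect; nearly all actives have a fitted effect of over 50% in size; the assay follows cell death caused by Vpr and the record does not say whether a fall means rescue or toxicity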
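Fission yeast RE007 carrying one integrated HIV-1 vpr copy, seeded at OD 0.01 in PMG+AL medium with 23 nL pinned compound. Grown 24 h at 30 degrees; viability read by BacTiter-Glo luminescence after 5 min.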
MARV entry inh – inhibitors of Marburg virus binding or cell entry; AID 540276; Potency, µM (highest dose often 37.8 µM), for inactives: at the top dose activity change, negative = inhibition, hits mostly inhibitors; Marburg virus pseudotyped entry inhibition, cell reporter; control for the full effect not named in the record; about a third of the inactives were read at about 46 µM; 300,000 tested, 1.8% active; active = well fitted inhibition curve with a large enough effect; inconclusive = small, poorly fitted or top-dose-only effect, or effect the other way; inactive = flat fitted curve, though single readings scatter; tested in HEK293 cells; about a fifth of its hits are not listed in these tables; further: on the % scale 0 is the no-effect control and ±100 the full control effect; luciferase read-out
SARS PLP yeast – SARS-CoV PLP inhibition in yeast; S. cerevisiae expressing SARS-CoV PLpro, growth rescue; control for the full effect not named in the record; Potency, µM (titrated, usually from 32.9 µM), for the others: at the top dose activity, positive = growth rescue; 330,000 tested, 0.19% active; AID 485353; further: 0% is about no effect; nearly all actives have a fitted effect of over 55% in size; growth read by luminescence after 48 h
Cruzain inh noDet – inhibitors of Trypanosoma cruzi cruzain without detergent | Potency, µM, for inactives: max response, negative = inhibition, usual class: inhibitors | P25779 | purified cruzain, Z-FR-AMC fluorescence, no detergent | 200,000 tested, 2.3% active; active means well fitted curve in the direction sought with a large enough effect; inconclusive means small, poorly fitted or top-dose-only effect, or another doubt; inactive means no such curve, though single readings can be large; an effect the other way counts as inactive or inconclusive;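 further: plate controls were enzyme without inhibitor for no effect and buffer without enzyme for full effect; nearly all actives have a fitted effect of over 40% in size; top concentration of the series not given in the record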
Target sequence (P25779 123-467 limits assumed): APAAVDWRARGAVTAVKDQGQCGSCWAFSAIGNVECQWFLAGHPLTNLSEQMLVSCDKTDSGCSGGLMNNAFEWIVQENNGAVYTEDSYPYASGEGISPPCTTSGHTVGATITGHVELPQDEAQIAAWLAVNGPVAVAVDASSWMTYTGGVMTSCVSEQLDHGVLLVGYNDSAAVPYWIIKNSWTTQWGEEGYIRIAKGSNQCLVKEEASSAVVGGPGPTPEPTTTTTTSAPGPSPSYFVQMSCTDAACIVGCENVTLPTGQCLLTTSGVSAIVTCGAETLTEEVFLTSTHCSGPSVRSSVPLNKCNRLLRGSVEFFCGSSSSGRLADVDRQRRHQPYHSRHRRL
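Purified cruzain at 1.5 nM, pre-incubated 15 min with compound at room temperature in 100 mM sodium acetate pH 5.5, 5 mM DTT, 0.00005% Triton X-100. Reaction started with 2 uM Z-FR-AMC; AMC fluorescence increase over 60 s gives rate.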
Cruzain inh Det – cruzain (T. cruzi) inhibition with detergent; P25779; purified cruzain, Z-FR-AMC fluorescence, 0.01% Triton; Potency, µM, without a hit: max response, negative = inhibition, hits mostly inhibitors; 200,000 tested, 0.43% active; active means well fitted curve in the direction sought with a large enough effect; inconclusive means small, poorly fitted or top-dose-only effect, or another doubt; inactive means no such curve, though single readings can be large; an effect the other way counts as inactive or inconclusive;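 further: plate controls were neutral wells for no effect and buffer without enzyme for full effect; nearly all actives have a fitted effect of over 40% in size; top concentration of the series not given in the record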
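Read-out: AMC fluorescence (360 nm excitation, 450 nm emission), four reads over 2 min, first-to-third difference used. Conditions: cruzain 1.5 nM, Z-FR-AMC 2 uM, pH 5.5 acetate, 5 mM DTT, 0.01% Triton X-100.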
2A StopGo – lowers the luciferase signal of an FMDV 2A StopGo reporter. AID 1159524. Potency, µM (series often up to 57.9 µM), without a hit: at the top dose signal change, negative = less light. 410,000 tested, 1.2% active. human cells with a luciferase reporter of 2A StopGo recoding; control for the full effect not named in the record; active = well fitted falling curve with a large enough effect; inconclusive = small, poorly fitted or top-dose-only effect; inactive = no such curve, though single readings can be large or run the other way; tested in HEK293T cells; further: on the % scale 0 is the no-effect control and ±100 the full control effect; nearly all actives have a fitted effect of over 45% in size; luciferase light after 4 h
NS1 function inh – influenza NS1 inhibition. S. cerevisiae slowed by influenza A NS1, growth recovery by OD600. Potency, µM (titrated, usually from 46.1 µM), without a hit: at the highest dose activity, positive = more growth. 270,000 tested, 0.4% active. AID 2326; further: actives are rising curves; nearly all actives have a fitted effect of over 50% in size
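S. cerevisiae expressing influenza A NS1, grown in glucose, washed, then diluted 1:100 into pH 6.0 -URA galactose medium with 23 nl compound. Growth recovery read as OD600; NS1-free strain serves as control.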
Lassa entry inh – inhibitors of Lassa virus binding or cell entry; Potency, µM (series often up to 37.9 µM), for the others: top-dose activity change, negative = inhibition, actives largely listed as inhibitors; 300,000 tested, 1.2% active; Lassa virus pseudotype entry inhibition, cell reporter; control for the full effect not named in the record; AID 540256; active means well fitted inhibition curve with a large enough effect; inconclusive means small, poorly fitted or top-dose-only effect, or effect the other way; inactive means flat fitted curve, though single readings scatter; tested in HEK293 cells; further: on the % scale 0 is the no-effect control and ±100 the full control effect; nearly all actives have a fitted effect of over 50% in size; luciferase read-out
* = called active by the depositor; u = inconclusive; x = not tested or not shown; & = joins results of further samples; [ ] = dose if it differs, or a comment. Unless noted, the call rests on the fitted dose curve; in most records, active means well fitted rising curve with a large enough effect; inconclusive means small, poorly fitted or top-dose-only effect; inactive means no such curve, though single readings can be large or run the other way. Potency means the concentration at half of the fitted maximal effect.

SMILES	RE007 growth inh	MARV entry inh	SARS PLP yeast	Cruzain inh noDet	Cruzain inh Det	2A StopGo	NS1 function inh	Lassa entry inh
Cc1ccc(SC(C)C(=O)N2CCN(c3ccccc3)CC2)cc1 (stereo not given)	-16%	6%[46.1 µM]	18%	x	x	-9%	-27%	-21%[46.1 µM]
Cc1ccc(CSCC(=O)NCc2ccc3c(c2)OCO3)cc1	-16%	13%[46.1 µM]	-2%	x	x	15%	-8%	7%
CCC(C)OC(=O)C1=C(C)NC(=O)NC1c1ccc(F)cc1 (stereo not given)	-7%	10%	-6%	0%	-0.9%	x	-9%	-8%
Cc1ccc(NC(=O)CN(Cc2ccccc2)S(C)(=O)=O)cc1C	-10%	0%	3%	2%	7.4%	0%	-8%	5%
Brc1ccc2[nH]cc(C=NN3CCCCCC3)c2c1	-8%	-4%	x	x	x	-13%	x	12%
COC(=O)N1CC(=O)N(OC)C1c1ccc(Cl)cc1Cl (stereo not given)	10%	-4%	-2%	-9%	3.5%	-12%	u	3%
O=C(/C=C/c1cn(CC(O)CN2CCCCCC2)c2ccccc12)c1cccs1 (stereo not given)	8%	u	-1%	3%	-7.3%	1%	4%	u
COc1ccc(NCc2cc3cc4c(cc3n(CC(=O)Nc3ccccc3)c2=O)OCO4)cc1	x	x	x	18%	2.2%	4%	x	5%[46.1 µM]
Clc1ccc(-c2nnc(COc3ncnc4sccc34)o2)cc1	6%	30%	-23%	-10%	-2.7%	46%[activator]	-6%	u
CC(NC(=O)CN(C1CCCCC1)S(C)(=O)=O)c1ccccc1 (stereo not given)	21%	-12%[46.1 µM]	-10%	8%	0.8%	-4%	5%	5%
CCCCn1c(SCC(=O)Nc2nc(C)cs2)nnc1-c1cccnc1	3%	9%	5%	-1%	1.1%	-13%	-7%	2%
Cn1nc(C(=O)OCC(=O)N(Cc2ccccc2)C(C)(C)C)c2ccccc2c1=O	12%	-2%	5%	x	x	u	x	u
CC1=NN(C(=S)Nc2ccccc2)C(c2ccccc2)C1 (stereo not given)	-21%	8%	27%	3%	-1.7%	36%[activator]	-5%	11%
CCOCCCNC(=S)NCCCNc1nc2c(C)cc(C)cc2cc1C#N	-4%	x	6%	x	x	22%	0%	x
Cc1cccc(N2CCN(S(=O)(=O)c3ccc(-c4coc(C)n4)cc3)CC2C)c1 (stereo not given)	5%	x	-17%	x	x	-22%	10%	x
CCSc1nc2nccnc2c(=O)[nH]1	8%	u	x	x	x	-8%	x	3%
CC1CCc2[nH]c3ccc(C(=O)N4CCCC(C(F)(F)F)C4)cc3c2C1 (stereo not given)	18%	-46%	0%	x	x	-27%	x	u
CCc1cccc(NC(=O)c2nnn(Cc3ccc(SC)cc3)c2N)c1	x	19%[46.1 µM]	x	-8%	0.9%	23%	x	-1%[46.1 µM]
O=S(=O)(NN1CCOCC1)c1cc(Cl)cc(Cl)c1O	1%	10%	2%	x	x	14%	12%	-3%
CC(=O)Nc1ccc(S(=O)(=O)Nc2ccc3c(c2)OCO3)cc1	0%	-28%[46.1 µM]	-2%	x	x	36%[activator]	2%	-10%[46.1 µM]
O=C(Nc1nnc(-c2ccccc2)o1)c1ccc(Cl)cc1	-27%	13µM*	x	-6%	1.6%	8%	-135%	u
CC1CCc2c(sc3nc(CSc4n[nH]c(N)n4)[nH]c(=O)c23)C1 (stereo not given)	4%	-5%	-3%	u	-5.2%	39%[activator]	7%	u
Cc1ccc(Cl)cc1-n1ncc2c(NCc3ccc(F)cc3)ncnc21	x	x	x	-23%	-3.6%	u	x	-12%[46.1 µM]
Cc1oc(C)c(C(=O)Nc2ccc(CC(=O)O)cc2)c1C(=O)Nc1ccc(CC(=O)O)cc1	14%	2%	3%	-4%	8.0%	7%	u	5%
N/C(=N\OC(=O)CCc1ccccc1)c1cccnc1	14%	x	0%	x	x	15%	2%	x
More results
SMILES	RE007 growth inh	MARV entry inh	SARS PLP yeast	Cruzain inh noDet	Cruzain inh Det	2A StopGo	NS1 function inh	Lassa entry inh
CC(Sc1nnc(-c2cc3ccccc3o2)n1-c1ccccc1)C(=O)O (stereo not given)	5%	8%	2%	4%	0.4%	-15%	6%	6%
Cc1ccc(C(=O)C(OC(=O)COc2ccccc2C)c2ccccc2)cc1 (stereo not given)	9%	-2%	1%	u	-3.9%	16%	24%	-9%
Cc1ccc2cc(CCNC(=O)C(=O)c3c(C)[nH]c4ccccc34)c(=O)[nH]c2c1	-2%	x	0%	x	x	-4%	-14%	x
COc1ccc(C2CC(c3cccs3)=NN2C(=O)CSc2nncs2)cc1OC (stereo not given)	13%	u	2%	x	x	33%[activator]	x	-2%[46.1 µM]
CCOc1ccc(-c2nnc(-c3ccc(OC)cc3)o2)cc1	-7%	u	0%	16%	1.7%	28%	7%	4%
O=C(CCCSc1ccccc1)Nc1cccc(CO)c1	-2%	u	-2%	x	x	12%	5%	-2%[46.1 µM]
COc1cc(/C=N/NC(=O)c2ccc(NC(=O)C3CCCCC3)cc2)ccc1O	-5%	0%[46.1 µM]	0%	x	x	-16%	10%	u
O=C(Nc1ccc(Cl)c(Cl)c1)c1cccnc1	-11%	x	-8%	x	x	37%[activator]	-65%	x
CCOC(=O)/C(C#N)=C\c1cc(OC)c(OC)cc1[N+](=O)[O-]	-11%	u	1%	x	x	-22%	1%	9%
Cc1cc(C)cc(OCC(=O)N2N=C(C(F)(F)F)CC2(O)C(C)(C)C)c1 (stereo not given)	23%	u	-21%	u	-8.4%	u	-15%	-16%
O=C(C1CCN(Cc2ccccc2O)CC1)N1CCN(Cc2ccc3c(c2)OCO3)CC1	-27%	u	u	x	x	-21%	-3%	2%
O=C(NCCCO)/C(=C/c1ccc(-c2cccc([N+](=O)[O-])c2)o1)NC(=O)c1ccccc1	4%	u	1%	x	x	-23%	1%	1%
CCOc1ccc(CC(=NCCc2ccccc2)C2=C(O)CC(C)(C)CC2=O)cc1OCC	-14%	31%	-9%	u	-6.5%	u	-43%	u
S=C1NCN(Cc2ccccc2)CN1C1CCCCC1	-10%	u	28%	x	x	-6%	x	8%
Cn1c(=S)c2[nH]c(SCCN3CCCC3)nc2n(C)c1=O	x	x	-6%	-2%	-0.3%	0%	5%&14%	x
CCCN(CCC)c1nc(NC2CCN(C(=O)OCC)CC2)nc(OC)n1	13%	u	11%	u	-6.6%	u	-68%	u
COc1cccc(C2CC(=O)Nc3c2c(=O)[nH]c2ncnn32)c1 (stereo not given)	-28%	5%[46.1 µM]	0%	x	x	-7%	x	6%
O=C1OCCC1Sc1nnc(-c2ccco2)n1-c1ccccc1 (stereo not given)	3%	4%[46.1 µM]	2%	x	x	5%	x	x
COc1ccc(C(c2sc3nc(C)nn3c2O)N2CCC3(CC2)OCCO3)cc1 (stereo not given)	25%	20%[46.1 µM]	4%	3%	3.1%	2%	-11%	u
CC(=O)c1ccc(NC(=S)Nc2ccc3cn[nH]c3c2)cc1	-8%	10%[14.2 µM]	1%	x	x	27%	x	-30%
COCCn1c(SCC(=O)Nc2ccccc2F)nnc1-c1ccoc1C	4%	-1%[46.1 µM]	2%	x	x	-6%	1%	8%
CC(=O)c1cccc(S(=O)(=O)NCC(c2ccco2)N2CCCCC2)c1 (stereo not given)	-1%	-8%	-3%	0%	5.3%	-7%	2%	2%
O=C(O)Cc1cnc[nH]1	17%	u	x	-7%	3.5%	-24%&-13%&-3%	-6%	u
CC(C)Oc1ccc(CCN=C(N)N=C(N)N)cc1Cl	2%	-27%	-1%	x	x	-18%	-2%	-9%
COc1ccccc1NC(=O)CNC(c1ccccc1)c1ccccc1	14%	u	-5%	x	x	6%	-29%	-26%[46.1 µM]
New compounds follow
SMILES	RE007 growth inh	MARV entry inh	SARS PLP yeast	Cruzain inh noDet	Cruzain inh Det	2A StopGo	NS1 function inh	Lassa entry inh
O=C(COC(=O)c1cc(=O)c2ccccc2o1)NCC1CCCCC1	3%	u	2%	x	x	0%	x	4%[46.1 µM]
COc1ccc(OC)c(C2NC(=O)NC(C)=C2C(=O)OCc2ccccc2)c1 (stereo not given)	6%	x	0%	x	x	-5%	10%	x
CCN1CCN(c2ccc(S(=O)(=O)N3CCOCC3)cc2NC(=O)/C=C/c2ccc([N+](=O)[O-])cc2)CC1	-8%	u	2%	x	x	-7%	x	-4%[46.1 µM]
CC1CCCC(C)N1C(=O)COC(=O)c1ccc[nH]c1=O (stereo not given)	3%	-15%[46.1 µM]	1%	-3%	3.5%	-10%	-4%	-9%
COc1ccccc1NC1=NC(C)(C)N=C(N)N1	-4%	1%[46.1 µM]	11%	-10%	2.3%	11%	9%	1%
Cc1cccc(C(=O)N2CCC(=O)N(C(COCc3ccc(Cl)cc3)Cc3ccccc3)CC2)c1 (stereo not given)	-1%	-4%	-19%	u	-8.9%	u	-16%	10µM*
CCOc1cc(C(=O)Nc2ccc(S(=O)(=O)NC3=NCCCCC3)cc2)cc(OCC)c1OCC	5%	-16%	7%	x	x	7%	x	-25%
O=C1c2ccccc2C(=O)N1/N=C/c1ccc(Oc2ccc([N+](=O)[O-])cn2)cc1	4%	12%[46.1 µM]	0%	x	x	-11%	19%	13%
Cc1ccc(S(=O)(=O)N2CCCC(C(=O)NC3CCCC3)C2)cc1 (stereo not given)	4%	8%[46.1 µM]	-15%	x	x	-12%	7%	0%[46.1 µM]
O=C(C1=C(O)C(=O)N(CC2CCCO2)C1c1ccc(Cl)cc1Cl)c1ccco1 (stereo not given)	-1%	-19%[46.1 µM]	7%	x	x	-4%	7%	u
CC(=O)c1ccc(N=C2C(=O)Nc3ccccc32)cc1	-3%	7%[46.1 µM]	2%	x	x	19%	11%	-27%[46.1 µM]
CC(=O)N1CCc2c(sc3c2c(=O)n(-c2ccccc2C)c(=O)n3CC(=O)Nc2ccccc2)C1	x	3%[46.1 µM]	x	u	-1.9%	37%	x	x
O=C(c1cccc(S(=O)(=O)N2CCN(c3ccccc3)CC2)c1)N1CC=C(c2ccccc2)CC1	0%	-27%[46.1 µM]	5%	x	x	-23%	21%	-30%[46.1 µM]

An unsorted share of the library. About 4.8% of those tested had a hit in this group.
